Bioassay records: PubChem, National Center for Advancing Translational Sciences (NCATS)
2A firefly – FMDV 2A StopGo reporter, firefly signal. HEK cells with a luciferase reporter of 2A StopGo recoding. Potency, µM (doses to about 57.5 µM), inactives show at the highest dose signal change, negative = less light. 120,000 tested, 0.23% active; active = well fitted falling curve with a large enough effect; inconclusive = small, poorly fitted or top-dose-only effect; inactive = no such curve, though single readings can be large or run the other way; further: nearly all actives have a fitted effect of over 60% in size; overnight with compound
StopGo RLuc – FMDV 2A StopGo reporter, Renilla signal | HEK cells with a luciferase reporter of 2A StopGo recoding | Potency, µM (titrated, usually from 57.5 µM), for inactives: at the highest dose signal change, negative = less light | 120,000 tested, 0.32% active | AID 1745857; active means well fitted falling curve with a large enough effect; inconclusive means small, poorly fitted or top-dose-only effect; inactive means no such curve, though single readings can be large or run the other way; further: nearly all actives have a fitted effect of over 55% in size; overnight with compound
* hit, by the source's call; u = inconclusive; & = joins results of further samples; [ ] = dose if it differs, or a comment. On the % scale 0 is the no-effect control and ±100 the full control effect; potency means the concentration at half of the fitted maximal effect. Rows are unselected; overall some 0.55% were active at least once.

Each structure is followed by: StopGo RLuc	2A firefly
- CC(C)=CC1C(C(=O)Nc2c(C)cccc2C(C)C)C1(C)C (stereo not given)
→ 21%	-12%
- CCCCN(C)C(=O)Cn1cnc2sc(C)c(S(=O)(=O)N3CCN(c4ccccc4OC)CC3)c2c1=O
→ -8%	-14%
- CCN(C(=O)CSc1nc2ncccc2[nH]1)c1ccc(C(C)C)cc1
→ -7%	-12%
- O=C(Cn1nc(C(=O)O)c2ccccc2c1=O)c1ccc(C2CCCCC2)cc1
→ -10%	-5%
- Cc1oc(-c2ccc(C(=O)NCCCN3CCOCC3)cc2)nc1CS(=O)(=O)c1ccccc1
→ -3%	-10%
- CC(=O)c1c(C)[nH]c(C(=O)C(C)Sc2ccc3c(c2)OCCCO3)c1C (stereo not given)
→ u	u
- CCC(C)NC(=O)c1c(-c2ccccc2)c(-c2ccccc2)nn(C)c1=O (stereo not given)
→ 16%	-16%
- Cc1nn(-c2ccccc2)c(C)c1CCC(=O)N1CCN(S(=O)(=O)c2ccc(Cl)cc2)CC1
→ u	u
- CCn1cc(C#N)c(=O)n(Cc2nc(-c3ccccc3C)no2)c1=O
→ 4%	3%
- CCc1cccc2c(C(=O)COC(=O)c3cccs3)c[nH]c12
→ 2%	104%[activator]
- CCn1c(N2CCN(Cc3ccc(Cl)c(Cl)c3)CC2)nc2c1c(=O)[nH]c(=O)n2C
→ u	u
- Cc1ccc(Cl)cc1NC(=O)Cn1c(C)nc2c(sc3cccc(F)c32)c1=O
→ 1%	-1%
- Cc1cc(=O)n2c3ccccc3n(CC(O)CN3CCCCC3)c2c1C#N (stereo not given)
→ -11%	2%
- CCCCN(Cc1cc2cc(C)ccc2[nH]c1=O)C(=O)c1ccc(OC)c(OC)c1
→ 52%[activator]	19%
- O=C(O)CCNS(=O)(=O)c1ccc(Cl)cc1
→ 14%	18%

Five structures from above, arranged by number of heavy atoms, highest first:
Each structure is followed by: StopGo RLuc	2A firefly
- CCCCN(Cc1cc2cc(C)ccc2[nH]c1=O)C(=O)c1ccc(OC)c(OC)c1
→ 52%[activator]	19%
- O=C(Cn1nc(C(=O)O)c2ccccc2c1=O)c1ccc(C2CCCCC2)cc1
→ -10%	-5%
- CCN(C(=O)CSc1nc2ncccc2[nH]1)c1ccc(C(C)C)cc1
→ -7%	-12%
- CCc1cccc2c(C(=O)COC(=O)c3cccs3)c[nH]c12
→ 2%	104%[activator]
- O=C(O)CCNS(=O)(=O)c1ccc(Cl)cc1
→ 14%	18%

Continued.
Each structure is followed by: StopGo RLuc	2A firefly
- CN(Cc1ccccc1)C(=O)c1nccnc1N
→ 4%	0%
- CC1=C(c2ccc(C)c(C)c2)S(=O)(=O)N(Cc2ccc(C(=O)NC3CCCC3)cc2)C1=O
→ 0%	1%
- COc1ccc(C2CCCN2Cc2cc(=O)oc3c(C)c(C)ccc23)cc1 (stereo not given)
→ 21%	11%
- Cc1ccc(OCC(=O)Nc2cc(C(F)(F)F)ccc2N2CCOCC2)cc1C
→ -3%	-3%
- FC(F)(F)c1ccccc1C(c1ccccc1)N1CCCNCC1 (stereo not given)
→ -10%	-12%
- Cc1ccc(NC(=O)C2CCN(c3nc4ccccc4[nH]3)CC2)cc1Cl
→ -20%	-28%
- Cc1cccc(NC(=O)CN2C(=O)C(c3ccc(F)cc3)=NC23CCCCCC3)c1C
→ -12%&-13%	-24%&6%
- CSc1ccc(C(C)NC(=O)C=C(C)C)cc1 (stereo not given)
→ -3%	-1%
- Cc1oc(C)c(C(=O)OCc2ccc(C#N)cc2)c1C
→ -8%[1.06 µM]	0%
- CN(C)S(=O)(=O)c1cccc(NC(=O)c2ccc(OCc3cn4ccccc4n3)cc2)c1
→ u	u
- CCCN1CCN(CCCNC(=O)c2cnn(-c3ccc(C)cc3)c2-n2cccc2)CC1
→ -13%	-5%
- COc1cccc(C(=O)CSc2nnc(-c3cc4ccccc4o3)n2C)c1
→ -10%	-1%
- CCC1c2ccsc2CCN1C(=O)/C=C/c1ccccc1C (stereo not given)
→ -1%	24%
- CCCc1cc(C(=O)NC(C)c2ccccn2)sc1C (stereo not given)
→ 12%	0%
- COCCNc1ccc(-c2nc(-c3ccccn3)no2)cc1[N+](=O)[O-]
→ 16%	74%[activator]

Four entries from above in a different format:
| SMILES | StopGo RLuc | 2A firefly |
| --- | --- | --- |
| CC1=C(c2ccc(C)c(C)c2)S(=O)(=O)N(Cc2ccc(C(=O)NC3CCCC3)cc2)C1=O | 0% | 1% |
| COc1ccc(C2CCCN2Cc2cc(=O)oc3c(C)c(C)ccc23)cc1 (stereo not given) | 21% | 11% |
| Cc1ccc(OCC(=O)Nc2cc(C(F)(F)F)ccc2N2CCOCC2)cc1C | -3% | -3% |
| FC(F)(F)c1ccccc1C(c1ccccc1)N1CCCNCC1 (stereo not given) | -10% | -12% |

(further entries)
Each structure is followed by: StopGo RLuc	2A firefly
- CCN(CC)CCCNC(=O)c1ccc2c(c1)N(Cc1c(F)cccc1Cl)C(=O)c1ccccc1S2
→ 21%	-4%
- CCCN(CC(=O)Nc1ccccc1C)S(=O)(=O)c1cccc2cc(C)cnc12
→ 94%[activator]	-11%
- Cc1cc(C)c(Cn2c3ccccc3c3cnn(CC(=O)N4CCCCCC4)c(=O)c32)c(C)c1
→ -7%	9%
- O=C(CSc1nc2c([nH]c3ccccc32)c(=O)n1-c1ccccc1)c1ccc(Cl)cc1
→ -5%	-12%
- CCOC(=O)C(C)Oc1ccc2c(=O)c(-c3ccc(Cl)cc3)c(C)oc2c1 (stereo not given)
→ 14%	21%
- O=C(NCCc1ccc(Cl)cc1)c1cc(-c2ccccc2)n[nH]1
→ 41%[activator]	-9%
- CCOP(=O)(OCC)c1nc(-c2ccc(Cl)cc2)oc1NCc1cccnc1
→ 9%	6%
- CCOc1ccc(NC(=O)NCCN2CCN(c3cc(Cl)ccc3C)CC2)cc1
→ -11%	-20%
- COCc1cccc(C(=O)NCc2ccc(C(=O)O)cc2)c1
→ 7%	1%
- Clc1ccc(CCNC(c2cccc(Cl)c2)c2nnc(-c3ccccc3)o2)cc1 (stereo not given)
→ 59%[activator]	-6%
- CCCN(CCC)CC(O)Cn1cc(/C=C/C(=O)c2ccc(OCC)cc2)c2ccccc21 (stereo not given)
→ 3%	30%
- CCN(C(=O)COc1cc(=O)n(C)c2ccccc12)c1cccc(C(F)(F)F)c1
→ 13%	-16%
- Cc1cc(NC(=O)C2CCCN(S(=O)(=O)c3cn(C)cn3)C2)ccc1Br (stereo not given)
→ 21%	-23%
- O=c1oc2cc(OC/C(=N\O)c3ccccc3)ccc2c2c1CCC2
→ 18%	179%[activator]
- COc1cc(C2CC(=O)Nc3cc4c(cc32)OCCO4)cc(Br)c1OC (stereo not given)
→ -5%	3%

Each structure is followed by: StopGo RLuc	2A firefly
- CSCc1ccc(C(=O)O)cc1
→ -3%	1%
- CC(=O)NC1=NN(C(C)=O)C2(S1)C(=O)N(CC(C)C)c1ccc(Br)cc12 (stereo not given)
→ 288%[activator]	-7%
- COC(=O)c1ccccc1NC(=O)NCc1nc(-c2ccc(C)cc2)oc1C
→ 32%[activator]	24%
- Cc1ccc(O)c(C(=O)/C=C/c2ccccc2Cl)c1
→ u	3%
- CCN(CC)C(=O)Oc1ccc2c(=O)c(-c3ccc(OC)cc3)c(C)oc2c1
→ u	u
- CN1CCCN(C(=O)c2cc3cc(Cl)ccc3oc2=O)CC1
→ -2%	6%
- CCOC(=O)N1CCN(C(=O)CN(c2cccc(Cl)c2C)S(=O)(=O)c2ccc(C)cc2)CC1
→ -2%	5%
- CC(C)c1cccc(NC(=O)CC2(C(=O)O)CCCCC2)c1
→ -4%	4%
- O=C(/C=C/c1c(-c2ccccc2)[nH]c2ccccc12)C(F)(F)F
→ 50%[activator]	4%
- CCOC(=O)C1CCN([C@H]2CS(=O)(=O)C[C@@H]2S(=O)(=O)c2ccccc2)CC1
→ 1%	0%
- CCNC(=O)CN1CCN(Cc2ccc(F)c3cccnc23)CC1
→ -18%	-9%
- COc1ccc(CNC(=O)N2CCN(S(=O)(=O)c3cc(F)ccc3F)CC2)cn1
→ -1%	9%
- Cc1ccc(-c2csc(/C=C/c3ccc(C#N)cc3)n2)cc1
→ 22%	117%[activator]
- N#C/C(=C\c1cccc2ccccc12)c1nc2ccccc2[nH]1
→ u	u
- COc1cccc(Cn2c(=O)cc(C)c3c(C)nn(-c4ccc(C)cc4)c32)c1
→ -9%	-16%

Each structure is followed by: StopGo RLuc	2A firefly
- CCCc1ncc(C(O)c2cccc(OC)c2)n1C (stereo not given)
→ -1%	9%
- COc1ccccc1C(=O)NCc1ccc2c(c1)CCN2C(=O)c1ccncc1
→ 0%	-11%
- CCCCn1c(=O)[nH]c(=O)c2c1nc(COC(=O)/C=C/c1cc(Cl)c(OC)c(OCC)c1)n2C
→ -3%	-3%
- CCN(CC)c1ccc(NC(=O)CN(C)S(=O)(=O)c2cccc3nsnc23)c(C)c1
→ -6%	-29%
- COc1ccc(-c2c(NC(=O)c3ccco3)n(-c3ccccc3)nc(C)c2=O)cc1
→ 0%	-2%
- Cc1noc(NS(=O)(=O)c2ccc(N)cc2)c1C
→ -6%	-11%
- CC(Sc1nc(CN2CCOCC2)nc2ccccc12)c1ccccc1Cl (stereo not given)
→ -6%	-2%
- CCCN(C(=O)Cn1nc(Cc2ccncc2)c2ccccc2c1=O)c1ccccc1C
→ -14%&-12%	-27%&-16%
- Cc1ccc(S(=O)(=O)N2CCN(C(=O)COc3cccc(-n4cnnn4)c3)CC2)c(C)c1
→ 10%	4%
- Cc1ccc(OCC(=O)Nc2ccc(C(=O)OCc3cc(=O)n4nc(C5CC5)sc4n3)cc2)cc1
→ 7%	0%
- COCCCNC(=O)CCC(=O)N1Cc2ccccc2Oc2ncccc21
→ -10%	-6%
- CCn1cc(CN(C)C(=O)c2cc3cc(Br)ccc3oc2=O)c(C)n1
→ -13%	-12%
- COc1ccc(CCN2CNc3c(c(=O)[nH]c(=O)n3-c3cccc(Cl)c3C)C2)cc1OC
→ 0%	9%
- CC(=O)c1cccc(NC(=O)c2oc(=O)c3ccccc3c2-c2ccccc2)c1
→ 41%[activator]	-7%
- COc1ccc(OC)c(CNc2sc3c(c2C(=O)Nc2cc(OC)ccc2OC)CCCC3)c1
→ u	-13%

Each structure is followed by: StopGo RLuc	2A firefly
- CCC(C)c1ccc(OCC(=O)Nc2ccc(-c3nc4ncccc4o3)cc2)cc1 (stereo not given)
→ -17%	7%
- NC(=O)c1nn(CC(=O)Nc2ccccc2OC(F)F)c(=O)c2ccccc12
→ -1%	9%
- COc1ccccc1N1CCN(C(=O)c2cnn(-c3ccc(C)c(C)c3)c2C2CCN(C(=O)OC(C)(C)C)CC2)CC1
→ -13%	-11%
- CCOc1ccc(C(C)=O)cc1COc1ccccc1C#N
→ -8%[1.06 µM]	25%
- COc1ccc(Cl)cc1C(=O)Nc1ccc2oc(-c3ccc(C(C)(C)C)cc3)nc2c1
→ 7%	136%[activator]
- Cc1cc2oc(=O)cc(CSc3nncn3C)c2cc1C
→ 12%	28%
- Cc1ccc(Cl)c(NC(=O)Nc2csc3c2CCCC3)c1
→ 20%	6%
- COC(=O)c1ccc(CNC(=O)C2Cc3ccccc3O2)cc1 (stereo not given)
→ 14%	132%[activator]
- COc1ccc(F)cc1C1=NN(C(C)=O)C(c2ccc3nccnc3c2)C1 (stereo not given)
→ 2%	-2%
- CC(C)CN(CC(C)C)S(=O)(=O)c1ccc(C(=O)Nc2sc3c(c2C(N)=O)CC(C)(C)NC3(C)C)cc1
→ -4%	-6%
- CCC(C)NC(=O)Cn1ncc2c([nH]c3ccc(C)cc32)c1=O (stereo not given)
→ -7%	-22%
- CC(=O)c1sc(NC(=O)c2nn(CC(C)C)c(=O)c3ccccc23)nc1C
→ 4%	1%
- COCCCNC(=O)c1nc(-c2ccc3[nH]ccc3c2)no1
→ 21%	176%[activator]
- Cc1cccc(-c2cc(C(=O)NCc3ccncc3)c3ccccc3n2)c1
→ 4%	0%
- CC(C)Cn1c(NCCN(C)C)nc2c1c(=O)[nH]c(=O)n2C
→ -4%	-3%

Structural class: the entries above with a tert-butyl group.
Each structure is followed by: StopGo RLuc	2A firefly
- COc1ccccc1N1CCN(C(=O)c2cnn(-c3ccc(C)c(C)c3)c2C2CCN(C(=O)OC(C)(C)C)CC2)CC1
→ -13%	-11%
- COc1ccc(Cl)cc1C(=O)Nc1ccc2oc(-c3ccc(C(C)(C)C)cc3)nc2c1
→ 7%	136%[activator]

(continued)
Each structure is followed by: StopGo RLuc	2A firefly
- Cc1nc(-c2ccccc2)sc1-c1ccc(SCC(=O)NCc2ccccc2Cl)nn1
→ -15%	-8%
- COc1ccc(CNc2nc3c(-c4cccc(F)c4)nnn3c3ccccc23)cc1
→ -11%	383%[activator]
- Cc1ccc(Nc2cc(C)nc(Nc3ccc(NC(=O)CC(C)C)cc3)n2)cc1
→ u	u
- CCNc1c(NC(=O)Nc2ccc(F)cc2)c(=O)oc2ccccc12
→ -6%	3%
- COc1ccc(CN2CCNCC2)c(OC)c1OC
→ 1%	-8%[11.5 µM]
- O=C(CCCCc1nc2ccccc2s1)NC1CCCCCC1
→ -3%[1.06 µM]	-1%
- C/C(CC(=O)Nc1ccc(Cl)cc1)=N\NC(=O)C1CCCCC1
→ -3%[1.06 µM]	11%
- CCOC(=O)c1oc2cc(OC(=O)c3ccc(OC)cc3)ccc2c(=O)c1-c1ccc(OC)cc1
→ -9%	-2%

Structures from the list above that have a furan ring, fused or not, in the order listed:
Each structure is followed by: StopGo RLuc	2A firefly
- Cc1oc(C)c(C(=O)OCc2ccc(C#N)cc2)c1C
→ -8%[1.06 µM]	0%
- COc1cccc(C(=O)CSc2nnc(-c3cc4ccccc4o3)n2C)c1
→ -10%	-1%
- COc1ccc(-c2c(NC(=O)c3ccco3)n(-c3ccccc3)nc(C)c2=O)cc1
→ 0%	-2%
